# Polio RdRp inh: poliovirus RNA polymerase inhibition; % elongation, % (compound at 16.7 µg/mL); AID 588519; poliovirus polymerase elongation, fluorescence polarization; stronger effect = lower value; 150,000 compounds, 0.66% hits; in the data active means % elongation below about 90%; further: some results filed as inactive read as strong as hits
# Target sequence (P03300 1749-2209 limits assumed): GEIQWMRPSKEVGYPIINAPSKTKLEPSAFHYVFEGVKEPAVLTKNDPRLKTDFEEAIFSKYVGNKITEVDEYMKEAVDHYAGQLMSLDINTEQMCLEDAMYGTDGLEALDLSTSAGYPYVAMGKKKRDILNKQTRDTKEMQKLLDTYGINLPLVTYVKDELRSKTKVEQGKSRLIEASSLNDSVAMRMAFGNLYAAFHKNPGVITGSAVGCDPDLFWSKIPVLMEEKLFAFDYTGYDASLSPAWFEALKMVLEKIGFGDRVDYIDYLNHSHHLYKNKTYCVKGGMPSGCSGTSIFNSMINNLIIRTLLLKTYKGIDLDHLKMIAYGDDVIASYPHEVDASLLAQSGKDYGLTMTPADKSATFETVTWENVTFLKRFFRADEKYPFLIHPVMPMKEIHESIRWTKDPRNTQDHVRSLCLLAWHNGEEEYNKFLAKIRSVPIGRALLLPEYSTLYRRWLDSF
# Polio RdRp inh intensity: also measured in Polio RdRp inh; calls as there; % elongation; measured here: total intensity read-out; formula for this scale not given here;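 total fluorescence in place of polarization; lower means less elongation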
# Starred values were filed as active, the others as inactive. The list is partial; rates above refer to the full screens.
no. | mol | Polio RdRp inh | Polio RdRp inh intensity
1 | CCn1cc(C(=O)OCC(=O)Nc2cccc(C(C)=O)c2)c(=O)c2ccc(C)nc21 | 103 | 106
2 | COc1ccc(NC(=O)CN2C(=O)C(c3ccc(C)cc3)=NC23CCCCCC3)cc1Cl | 108 | 112
3 | CCCCSCCCNC(=O)C1CCN(Cc2nc(-c3cccc(Br)c3)oc2C)CC1 | 109 | 106
4 | CC(=O)c1cc(-c2ccccc2)n(CCC(=O)Nc2nc3c(C)cccc3s2)c1C | 103 | 105
5 | Cc1ccc(NC(=O)CS(=O)(=O)c2nc(-c3ccc(C)cc3)cn2-c2ccc(C)cc2)cc1 | 105 | 107
6 | CCOC(=O)C1CCC(CN(Cc2ccc(OC)cc2)S(=O)(=O)c2ccc(F)c(C(=O)Nc3cc(Cl)ccc3OC)c2)CC1 (centres undefined) | 110 | 109
7 | COc1ccc(CNC(=O)c2cc3c(-c4ccccc4F)nn(C)c3s2)c(OC)c1 | 110 | 107
8 | Cc1ccc(NC(=O)Nc2nnc(SCC(=O)N3CCCCC3)s2)cc1 | 105 | 110
9 | CC(C)CCOc1ccc(Cn2c(=O)sc3ccccc32)cc1 | 107 | 110
10 | CC(C)(C)c1ccc(NC(=O)C2CCCN(c3cnccn3)C2)cc1 (centres undefined) | 106 | 93
11 | COc1cccc(Nc2sc(C(=O)c3ccc(Cl)cc3)c(N)c2C(=O)NCc2ccc(C)cc2)c1 | 109 | 111
12 | Cc1nc(-c2ccccc2)sc1-c1ccc(SCC(=O)NCc2ccc(F)cc2)nn1 | 107 | 103
13 | Cc1ccc(C2=CC(c3ccc(Cl)cc3)n3nc(-c4ccc(C)cc4)nc3N2)cc1 (centres undefined) | 102 | 108
14 | CCOC(=O)C1CCCN(C(=O)Cn2ncn3c(cc4sc(CC)cc43)c2=O)C1 (centres undefined) | 109 | 108
15 | COC(=O)CN1C(=O)CSc2ccc(S(=O)(=O)Nc3cc(C)ccc3C)cc21 | 108 | 115
16 | COc1ccc(C2Nc3ccccc3-c3cc(C)nn32)cc1OC (centres undefined) | 104 | 105
17 | COc1ccc(CNC(=O)c2cccn2-c2nnc(N3CCCCC3)s2)c(OC)c1 | 112 | 115
18 | CCN(C(=O)Cn1c(=O)n(Cc2ccccc2)c(=O)c2c1c1cc(OC)ccc1n2C)c1ccccc1 | 112 | 117
19 | COc1ccc(NC(=O)Cn2c(=O)n(-c3ccccc3)c(=O)c3c4c(sc32)CCCC4)c(OC)c1 | 108 | 110
20 | CC(=O)N1CCN(c2csc3ccc(Br)cc3c2=O)CC1 | 112 | 111
21 | CCCCNC(=O)C1CCC(CNS(=O)(=O)c2ccc(NC(C)=O)cc2)CC1 (centres undefined) | 105 | 108
22 | O=C(NCc1ccccc1Cl)c1ccc2c(c1)ncn2-c1cccc(F)c1 | 105 | 108
23 | CC1CCN(S(=O)(=O)c2ccc3c(ccc(=O)n3CC(=O)NCc3ccc(Cl)cc3)c2)CC1 | 108 | 113
24 | Cc1ccc(C(=O)Nc2ccc3c(c2)N(C)C(=O)c2ccccc2S3)cc1F | 105 | 107
25 | Cc1ccc(CCNC(=O)c2ccc(CSc3nc4ccncc4n3Cc3ccc(F)cc3)cc2)cc1 | 114 | 109
26 | O=C(Cn1nc2c(cc1=O)CCCC2)NCc1ccccc1Cl | 109 | 99
27 | CSc1nnc2c(n1)OC(c1cccc(O)c1Cl)Nc1ccccc1-2 (centres undefined) | 106 | 108
28 | CCOc1ccccc1Nc1sc(C(=O)c2ccccc2)c(N)c1C(=O)Nc1ccccc1 | 107 | 112
29 | Cn1cc(S(=O)(=O)c2ccccc2)c(=O)c2cc(F)c(N3CCN(c4ccccc4)CC3)cc21 | 107 | 104
30 | Cc1ccc2c(c1)-c1c(cnn1CC(=O)N1CCN(c3cc(Cl)ccc3C)CC1)CO2 | 106 | 107
31 | O=C(COc1ccc2oc3c(c2c1)CCCC3)Nc1ccc(Cl)cc1 | 104 | 104
32 | Cc1oc(-c2ccccc2)nc1Cn1c(SCc2cccc(C(F)(F)F)c2)nc2cccnc21 | 109 | 114
33 | CCOc1ccccc1NC(=O)c1ccc2c(c1)CCN2S(=O)(=O)c1ccc(C)cc1 | 113 | 107
34 | COc1cc(CNc2ccc3[nH]c(=O)[nH]c3c2)ccc1OCc1ccccc1F | 112 | 107
35 | Cc1ccc(-c2c(CN3CCN(c4cccc(C(F)(F)F)c4)CC3)csc2C)cc1 | 89* | 83*
36 | CCC(C(=O)NCc1ccccc1)n1ncn2c(cc3occc32)c1=O (centres undefined) | 107 | 110
37 | CN(C)C(=O)c1ccc2c(c1)N(CC(=O)NCc1ccccc1Cl)C(=O)C1CCCCN21 (centres undefined) | 107 | 117
38 | O=C(Nc1nc2n(n1)C(c1ccccc1)C=C(c1ccc(Cl)cc1)N2)c1ccco1 (centres undefined) | 109 | 157
39 | O=C(Nc1ccccc1F)c1oc2ccccc2c1NC(=O)C12CC3CC(CC(C3)C1)C2 | 101 | 99
40 | N#Cc1cc2c(=O)n3ccccc3nc2n(-c2nnc(SCc3ccc(F)cc3)s2)c1=O | 107 | 116
41 | Cc1ccc(NC(=O)c2nc(S(C)(=O)=O)ncc2N(Cc2ccco2)Cc2cccs2)cc1C | 108 | 111
42 | CCCN(C(=O)Nc1cn(CC(C)C)c(=O)c2ccccc12)c1ccc(F)cc1 | 98 | 105
43 | Cc1ccc(C(=O)c2oc3ccccc3c2NC(=O)Cc2coc3cc(C)ccc23)cc1 | 121 | 118
44 | COc1cccc(CSc2nc3n(n2)C(c2ccccc2C)C(C(=O)Nc2ccccc2OC)=C(C)N3)c1 (centres undefined) | 106 | 113
45 | Cc1cc(C)cc(NC(=O)c2sc3nc(-c4cc5ccccc5oc4=O)[nH]c(=O)c3c2C)c1 | 105 | 115
46 | CN(C)c1ccc(C(CNC(=O)c2cccc(C(F)(F)F)c2)N2CCCC2)cc1 (centres undefined) | 101 | 106
47 | COc1ccc(-c2noc(-c3nnn(-c4ccc(C)cc4C)c3C)n2)cc1 | 101 | 97
48 | CCN(C(=O)Cn1nc(Cc2cccnc2)c2ccccc2c1=O)c1ccccc1F | 105 | 108
49 | O=C1CC(c2c(Cl)cccc2Cl)c2c(ccc3ccccc23)N1 (centres undefined) | 106 | 108
50 | CC1CCC(NC(=O)c2ccc(CSc3nc4ccncc4n3Cc3ccc(F)cc3)cc2)CC1 (centres undefined) | 109 | 109

# Next results:
no. | mol | Polio RdRp inh | Polio RdRp inh intensity
51 | Cc1ccc(CCNC(=O)c2ccc(NC(=O)N3CCSc4ccccc43)cc2)cc1 | 108 | 108
52 | O=C(CSc1cn(CC(=O)N2CCCC2)c2ccccc12)Nc1cc(C(F)(F)F)ccc1Cl | 109 | 115
53 | COc1ccc2c(c1)c1c(c(=O)n(-c3ccccc3)c(=O)n1CC(=O)NCCC1=CCCCC1)n2C | 105 | 105
54 | c1ccc(CNc2ncnc3[nH]ncc23)cc1 | 102 | 104
55 | CN(c1ccccc1)S(=O)(=O)c1ccc(NC(=O)c2cc(=O)c3ccccc3o2)cc1 | 113 | 107
56 | COCCn1c(C)cc(O)c(C(c2ccc(OC)cc2)N2CCCCC2)c1=O (centres undefined) | 103 | 110
57 | COc1cc2[nH]c(=O)n(Cc3ccc(C(=O)N4CCN(c5ccc(Cl)cc5)CC4)cc3)c(=O)c2cc1OC | 101 | 104
58 | CCOC(=O)N1CCc2c(sc(NCc3sccc3C)c2C(=O)Nc2ccc(OC)cc2OC)C1 | 104 | 110
59 | CCC(C(=O)Nc1cc(F)ccc1F)n1nc(-c2cc(C)ccc2C)ccc1=O (centres undefined) | 109 | 114
60 | CC(C)(C)c1ccc(C(=O)NCC(c2cccs2)S(=O)(=O)c2ccc(F)cc2)cc1 (centres undefined) | 104 | 101
61 | COCCNC(=O)c1ccc2c(c1)NC(=O)C(CS(=O)(=O)Cc1ccc(F)cc1Cl)N2 (centres undefined) | 117 | 121
62 | COc1cc(OC)cc(N2CCN(S(=O)(=O)c3ccc(-n4cnnn4)cc3)CC2)c1 | 106 | 106
63 | CCN(CC)CCNC(=O)C1CCN(c2nn3cc(-c4ccc(F)cc4)nc3s2)CC1 | 107 | 107
64 | COc1cc(C(=O)Oc2c(Sc3ccc(C)cc3)c(C)nn2-c2ccccc2)cc(OC)c1OC | 91 | 113
65 | COc1cc2nc(SCC(=O)Nc3c(C)cc(C)cc3C)n3nc(CCn4c(C)nc5ccccc54)nc3c2cc1OC | 103 | 104
66 | COC(=O)c1ccc(NC(=O)c2cc3cc(C)ccc3n2C)cc1 | 103 | 104
67 | Cc1sc2ncn(CC(=O)N3CCN(c4cccc(Cl)c4)CC3)c(=O)c2c1S(=O)(=O)N1CCC(C)CC1 | 106 | 107
68 | Cc1cccc(C(=O)Nc2nc(-c3ccc(Br)cc3)ns2)c1 | 107 | 106
69 | Cc1ccc2c(c1)N(C(=O)N1CCC(C(=O)NC3CCCCCC3)CC1)CCO2 | 105 | 110
70 | Cc1ccc(C)c(NC(=O)C2CCCN(S(=O)(=O)c3cn(C)cn3)C2)c1 (centres undefined) | 106 | 114
71 | CCc1cccc(CC)c1NC(=O)CCS(=O)(=O)c1ccc2c(c1)CCN2C(C)=O | 113 | 110
72 | Cc1ccc(NC(=O)c2cc(S(=O)(=O)N3CCCC(C)C3)cn2C)c(Br)c1 (centres undefined) | 104 | 105
73 | COc1ccc(C(CC(=O)NCc2ccc(Cl)cc2)N2Cc3ccccc3C2=O)cc1OC (centres undefined) | 111 | 97
74 | Cc1cc(S(=O)(=O)C(CNC(=O)c2ccc(F)c(F)c2)c2cccs2)ccc1F (centres undefined) | 107 | 103
75 | Cc1ccccc1CNCCSc1nnnn1-c1ccccc1 | 105 | 105

# From no. 51 as far as 52, copied from above:
no. | mol | Polio RdRp inh | Polio RdRp inh intensity
51 | Cc1ccc(CCNC(=O)c2ccc(NC(=O)N3CCSc4ccccc43)cc2)cc1 | 108 | 108
52 | O=C(CSc1cn(CC(=O)N2CCCC2)c2ccccc12)Nc1cc(C(F)(F)F)ccc1Cl | 109 | 115

# Further structures
no. | mol | Polio RdRp inh | Polio RdRp inh intensity
76 | O=S(=O)(c1ccccc1)c1nnn2c1nc(NC1CCCCCC1)c1sccc12 | 110 | 114
77 | Cc1cccc(N2CCN(S(=O)(=O)c3ccc(F)c(C(=O)Nc4ccc(C(C)C)cc4)c3)CC2)c1C | 106 | 107
78 | CN(C)S(=O)(=O)c1ccc(C(=O)NCCSc2c(-c3ccc(Cl)cc3)[nH]c3ccccc23)cc1 | 107 | 110
79 | COc1ccc(C)cc1NC(=O)NCCn1nnc2cc(S(=O)(=O)N(C)C)ccc21 | 100 | 107
80 | O=C(CCCn1c(=O)[nH]c2ccsc2c1=O)N1CCN(c2ccc(Cl)cc2)CC1 | 112 | 114
81 | Cc1cc(C)c2c(n1)SCC(=O)N2CC(=O)Nc1ccccc1C | 110 | 111
82 | O=C(NCC(c1cccs1)S(=O)(=O)c1cccs1)c1ccccc1 (centres undefined) | 111 | 111
83 | CCOC(=O)COc1cc(C)c(Cl)cc1C(=O)c1ccn2nc(-c3ccc(OC)cc3)cc2n1 | 106 | 110
84 | Cc1c(C(=O)N(Cc2ccccc2F)C2CCS(=O)(=O)C2)oc2ccc(F)cc12 (centres undefined) | 102 | 90
85 | CCOCCCNC(=O)c1cnc2sc(N3CCCCCC3)nn2c1=O | 109 | 115
86 | CCOc1ccccc1-c1noc(CSc2nnc(-c3ccccc3)n2-c2ccc(F)cc2)n1 | 112 | 100
87 | CN(C)CCN(Cc1ccco1)C(=O)c1oc2ccccc2c1NC(=O)c1ccccc1 | 105 | 109

# Compounds above with an aryl thioether with sulfur outside any ring (14):
no. | mol | Polio RdRp inh | Polio RdRp inh intensity
8 | Cc1ccc(NC(=O)Nc2nnc(SCC(=O)N3CCCCC3)s2)cc1 | 105 | 110
12 | Cc1nc(-c2ccccc2)sc1-c1ccc(SCC(=O)NCc2ccc(F)cc2)nn1 | 107 | 103
25 | Cc1ccc(CCNC(=O)c2ccc(CSc3nc4ccncc4n3Cc3ccc(F)cc3)cc2)cc1 | 114 | 109
27 | CSc1nnc2c(n1)OC(c1cccc(O)c1Cl)Nc1ccccc1-2 (centres undefined) | 106 | 108
32 | Cc1oc(-c2ccccc2)nc1Cn1c(SCc2cccc(C(F)(F)F)c2)nc2cccnc21 | 109 | 114
40 | N#Cc1cc2c(=O)n3ccccc3nc2n(-c2nnc(SCc3ccc(F)cc3)s2)c1=O | 107 | 116
44 | COc1cccc(CSc2nc3n(n2)C(c2ccccc2C)C(C(=O)Nc2ccccc2OC)=C(C)N3)c1 (centres undefined) | 106 | 113
50 | CC1CCC(NC(=O)c2ccc(CSc3nc4ccncc4n3Cc3ccc(F)cc3)cc2)CC1 (centres undefined) | 109 | 109
52 | O=C(CSc1cn(CC(=O)N2CCCC2)c2ccccc12)Nc1cc(C(F)(F)F)ccc1Cl | 109 | 115
64 | COc1cc(C(=O)Oc2c(Sc3ccc(C)cc3)c(C)nn2-c2ccccc2)cc(OC)c1OC | 91 | 113
65 | COc1cc2nc(SCC(=O)Nc3c(C)cc(C)cc3C)n3nc(CCn4c(C)nc5ccccc54)nc3c2cc1OC | 103 | 104
75 | Cc1ccccc1CNCCSc1nnnn1-c1ccccc1 | 105 | 105
78 | CN(C)S(=O)(=O)c1ccc(C(=O)NCCSc2c(-c3ccc(Cl)cc3)[nH]c3ccccc23)cc1 | 107 | 110
86 | CCOc1ccccc1-c1noc(CSc2nnc(-c3ccccc3)n2-c2ccc(F)cc2)n1 | 112 | 100
